Screens (PubChem BioAssay)
Autofluor counter: counter-screen for toxin protease inhibitors: compound fluorescence; compound autofluorescence counterscreen, microsphere flow cytometry; stronger effect = higher value; fluorescence intensity (no concentration beside the values); hit rate 3.1% among 360,000;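 active = at least 3 SD above the mean of all compounds, about 16000 in these data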;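 note: 100 nL of 1 mM stock went into each well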
The depositor's hits bear a star. A portion of the library. The share of hits here may be higher or lower than overall.

SMILES	Autofluor counter
COc1c(C)cc(C(O)c2ncc(-c3ccc4ccccc4c3)[nH]2)cc1C (stereo unspecified)	2971
c1cc2c(c(NC3=NCCCS3)c1)CCCC2	3851
CC1=C(C(=O)N(C(C)C)C(C)C)CC(CC(=O)NCCN2CCOCC2)C(=O)N1Cc1ccc(F)cc1 (stereo unspecified)	5914
CCCCN(C=O)c1c(CC)nc2ccc(C(=O)NCCc3ccccn3)cn12	3404
CC(C)Oc1ccc(S(=O)(=O)N2CCOCC2)cc1NC(=O)CSC(=S)N1CCCC1	3790
COc1ccccc1N1CCN(Cc2cc(=O)oc3ccccc23)CC1	5834
C[C@@H]1CN([C@H](C)CO)C(=O)CCCn2nncc2CO[C@H]1CN(C)Cc1ccncc1	3730
COCc1cccc(-c2csc(C(NC(C)=O)c3cccc(OC)c3)n2)c1 (stereo unspecified)	2750
Cc1ccc(S(=O)(=O)Nc2ccc(Nc3nccn4c(-c5ccccc5Oc5ccccc5)cnc34)cc2)cc1	4039
CC1=CC(=NOS(=O)(=O)c2ccc(C)cc2)CC(C)(C)C1	5976
C[C@@H]1CCCN1[C@H]1CS(=O)(=O)N[C@@H]1COCc1ccccc1	6224
Cc1cnc(N)nc1-c1ccccc1	4320
Cc1c(NC(=O)COC(=O)c2ccccc2O)c(=O)n(-c2ccccc2)n1C	4020
O=C1NC[C@@H](CCCCN2C[C@H](Cc3ccccc3)N(CCC3CCCCC3)C(=O)C2=O)N(CCc2ccc(O)cc2)C1=O	5611
CCc1cc2c(cc1-c1csc(C/C(N)=N/O)n1)C(C)(C)CCC2(C)C	3914
Cc1ccc(CN2CC(N3CC=CC3)CS2(=O)=O)cc1 (stereo unspecified)	3972
C[C@@H]1CCCCO[C@@H](CN(C)Cc2ccc3c(c2)OCO3)[C@@H](C)CN([C@H](C)CO)C(=O)c2cc(NS(=O)(=O)c3ccccc3)ccc2O1	3633
CCN(C)C1CN(Cc2cn(Cc3ccc(OC)cc3)nn2)S(=O)(=O)C1 (stereo unspecified)	3983
Nc1nc(=O)n(C2CCC(CO)O2)cc1F (stereo unspecified)	4330
C#CCOC(=O)CCCN1C(=O)c2cccc3cccc(c23)C1=O	3965
Cc1ccc([C@H]2C[C@@H](n3cc(C4CC4)nn3)[C@H](O)CN2Cc2cccs2)cc1	4151
CCOC(=O)c1ccc(-c2ccc3ncnc(N(C)Cc4sccc4C)c3c2)o1	3712
C=Cn1cc(CNC[C@H]2O[C@@H](n3ccc(N)nc3=O)[C@H](O)[C@@H]2O)c(C)n1	3502
CCOC1=C2[C@H](c3ccccc3)N(S(=O)(=O)c3ccc(C)cc3)C(C(C)(C)C)[C@H]2C(C#N)(C#N)C(C#N)(C#N)C1 (stereo partly specified)	5536
OC[C@@H]1CN(Cc2ccccc2)C[C@H](n2cnc3c(NCc4ccncc4)ncnc32)O1	2906
(more compounds)
SMILES	Autofluor counter
CCc1nc2ccc(C(=O)Nc3cccc(NS(C)(=O)=O)c3)cn2c1N(C)C(=O)c1cccc(OC)c1	3546
COc1cc2c(cc1OC)CN(C(=O)c1cc(COc3ccccc3SC)on1)CC2	4126
CC(CC(=O)Nc1ccc2c(c1)c(=O)n(C)n2Cc1ccc(F)cc1)c1ccccc1 (stereo unspecified)	3410
COc1ccc(-c2nc3c4ccccc4ccn3c2Cc2ccccc2)cc1OC	5592
O=C(NC1CC1)c1ccc(-c2ccc3nccn3c2)cc1	2790
CN(C)Cc1cc(OCc2ccccc2)cc(CN(C)C)c1O	3808
O=C(Nc1ccc(F)c(Cl)c1)c1csc([C@@H]2C[C@H](O)[C@@H](CO)O2)n1	3780
COc1ccc(C(=O)N/C(=C/c2cccs2)C(=O)N2CCN(C)CC2)cc1	3608
CC1(C(=O)NCCC(F)(F)F)Cc2c(-c3cccc(C(F)(F)F)c3)ccnc2O1 (stereo unspecified)	3559
CC1(C(=O)NS(=O)(=O)C2CC2)CCCN(C(=O)c2cccc(Cl)c2)C1 (stereo unspecified)	3786
N#Cc1ccc(NN=Nc2ccccc2C#N)cc1	3643
COc1ccc(NC(=O)C2Cc3c(-c4ccc5c(c4)OCO5)ccnc3O2)cn1 (stereo unspecified)	2853
COc1ccc([C@H]2C[C@H](n3cc(-c4ccc(F)cc4)nn3)[C@@H](O)CN2CC2CCCCC2)cc1	4833
CCOC(=O)CNC(=O)N1Cc2ccccc2-n2nncc2C1	3020
NC(Cc1ccc(Cl)cc1)c1csc(Nc2ccc(C(=O)NCCCO)cn2)n1 (stereo unspecified)	3859
COc1ccc(CN2C(=O)C(CC(=O)NC3CCCCC3)CC(C(=O)N(C(C)C)C(C)C)=C2C)cc1 (stereo unspecified)	3738
CCNC(=O)C1CCCN(C(=O)c2cc(C)oc2C)CC1 (stereo unspecified)	3393
NS(=O)(=O)c1ccc(CCNc2ccn3nc(-c4ccccc4)cc3n2)cc1	3877
CCCCNC(=O)C1(C)CCN1C(=O)c1ccc(OC)c(C(F)(F)F)c1 (stereo unspecified)	3881
O=C(NCc1cccnc1)c1cc(C2CCCCN2C(=O)c2cccs2)on1 (stereo unspecified)	3921
CC1(C(=O)NS(=O)(=O)c2ccccc2Cl)CCN1C(=O)CCc1ccc(Cl)cc1Cl (stereo unspecified)	3011
CCOC(=O)N1CCN(C(=O)C[C@@H]2C[C@@]3(C(=O)OC)CCCCC=C3N(Cc3ccco3)C2=O)CC1	5716
CCn1nnnc1-c1ccc(OC)c(S(=O)(=O)Nc2ccccc2OC)c1	3903
CC1(Cc2c(Cl)cccc2Cl)C(=O)Nc2cc(-c3ccccc3Cl)ccc21 (stereo unspecified)	3549
CCCCn1nnnc1C(CC)N1CCC2(CC1)C(=O)NCN2c1ccccc1 (stereo unspecified)	6008

By substructure: those above with a CF3 group.
SMILES	Autofluor counter
CC1(C(=O)NCCC(F)(F)F)Cc2c(-c3cccc(C(F)(F)F)c3)ccnc2O1 (stereo unspecified)	3559
CCCCNC(=O)C1(C)CCN1C(=O)c1ccc(OC)c(C(F)(F)F)c1 (stereo unspecified)	3881

(further entries)
SMILES	Autofluor counter
COc1cc(NC(=O)C2CCN(S(=O)(=O)c3cccs3)CC2)c(C(=O)O)cc1OC	3675
COc1ccc(-c2cnc3c(NC=O)cc(-c4ccccc4)cn23)cc1OC	4354
O=C1c2cccc(N3CCNCC3)c2C2CCCCN12 (stereo unspecified)	6983
Cc1ccc(N2CC(C(=O)Nc3cccc(S(=O)(=O)N4CCOCC4)c3)CC2=O)cc1 (stereo unspecified)	4076
O=C(NN=Cc1ccc(Cl)cc1Cl)c1ccccc1	3889
CSc1ncnc2c1ncn2CCCN1CCN(c2ccccn2)CC1	3451
O=C1C(=Cc2cccc(F)c2)Cc2ccccc21	4368
CCNC(=O)C1(C)CCN1C(=O)Cc1ccc(C(C)C)cc1 (stereo unspecified)	3768
Cc1cccc(NC(=O)CN2CCN(C(=O)c3cc(C4CC4)nn3-c3ccccc3)CC2)c1C	3120
CN(Cc1ccc2c(c1)CCCN2C)C(=O)[C@H]1O[C@@H](n2cnc3c(N)ncnc32)[C@H](O)[C@@H]1O	5844
NNC(=O)Cc1cc(=O)[nH][nH]1	2865
O=C(c1[nH]c(C(F)(F)F)nc1-c1ccccc1)N1CCN(c2ncccn2)CC1	5248
COc1cc(-c2cnc3c(NC=O)cc(-c4ccc(C)cc4)cn23)cc(OC)c1OC	3178
CC1(c2nc3ccccc3[nH]2)CCCC2=Nc3ccccc3CN21 (stereo unspecified)	5697
CCCCc1c(-c2ccccc2OC)ncn1CCc1ccccc1Cl	4102
COc1ccc([C@H]2CC(=O)C[C@@H](CCn3cc(CC4CCCC4)nn3)O2)cc1	5896
COCCNC(=O)c1cc2c(c(-c3cccc(-c4cc5ccccc5o4)c3)n1)[C@@H](CCO)N(S(=O)C(C)(C)C)C2 (stereo partly specified)	6002
O=C(NCc1cccs1)c1ccc2sc(C3=C[C@@H](O)[C@@H](O)[C@@H](CO)O3)nc2c1	3636
COc1ccc(C2CCc3cc4c(cc3C2=NO)OCO4)cc1OC (stereo unspecified)	3073
CCc1nc2c(OCC(=O)c3ccc(F)cc3)cccn2c1N(C)C(=O)c1cccs1	3021
COc1ccc(/C=C/C(=O)c2c(O)cc(OC)cc2OC)cc1	5700
CC1(C(=O)NS(=O)(=O)C2CC2)CCN(C(=O)CSc2ccccc2)C1 (stereo unspecified)	3772
CC1=C(C(=O)N(C)C)CC(CC(=O)NCC2CCCCC2)C(=O)N1CCCN1CCCC1=O (stereo unspecified)	2912
C[C@@H]1CN([C@H](C)CO)C(=O)CCCn2nncc2CO[C@H]1CN(C)Cc1cccc(C(F)(F)F)c1	3364
COc1ccc(-c2ccc(C(=O)N3CCOCC3)c3occc23)c(C)c1	3842

Part of the list above in order of heavy-atom count, descending:
SMILES	Autofluor counter
Cc1cccc(NC(=O)CN2CCN(C(=O)c3cc(C4CC4)nn3-c3ccccc3)CC2)c1C	3120
COc1cc(NC(=O)C2CCN(S(=O)(=O)c3cccs3)CC2)c(C(=O)O)cc1OC	3675
Cc1ccc([C@H]2C[C@@H](n3cc(C4CC4)nn3)[C@H](O)CN2Cc2cccs2)cc1	4151
CCNC(=O)C1(C)CCN1C(=O)Cc1ccc(C(C)C)cc1 (stereo unspecified)	3768
CCNC(=O)C1CCCN(C(=O)c2cc(C)oc2C)CC1 (stereo unspecified)	3393

The list goes on.
SMILES	Autofluor counter
FC(F)(F)c1ccccc1Cc1c(-c2cccc(Cl)c2)nc2c3ccccc3ccn12	6017
COC(=O)[C@@]1(C(C)C)N=C(c2cc(OC)c(OC)c(OC)c2)[C@]2(O1)C(=O)Nc1ccc(F)cc12	5377
COc1ccc(Cl)cc1-c1cc(C(=O)NCc2ccc(F)cc2)[nH]n1	3771
NC(Cc1ccc(F)cc1)c1csc(NC(=O)NC(c2ccccc2)c2ccccc2)n1 (stereo unspecified)	4430
Cc1ccc(S(=O)(=O)NC(=O)C2(C)CCN2C(=O)CCc2ccc(Cl)cc2Cl)cc1 (stereo unspecified)	3668
COc1ccc(OC)c(NC(=O)Nc2nc(C(C)N)cs2)c1 (stereo unspecified)	4186
COC(=O)[C@]12CCCCC=C1N(Cc1ccco1)C(=O)[C@H](CC(=O)NCc1ccc(OC)c(OC)c1)C2	4291
COCCNc1nc(Oc2cncc(Cl)c2)c2sccc2n1	2891
COc1cc2ccc(CC(=O)O)cc2cc1OC	4270
CCNC(=O)C1CCCN(C(=O)c2cc(F)cc(F)c2)CC1 (stereo unspecified)	3800
CC(=NOC(=O)C1CCCCC1)c1nccs1	2973
CN(CCC#N)c1ccc(C=C(C#N)c2cccc(C(F)(F)F)c2)cc1	4371
CSc1ccc(CN2CCC2(C)C(=O)NC2CCN(Cc3ccccc3)CC2)cc1 (stereo unspecified)	3651
O=C1C(=Cc2cccc(Cl)c2)Cc2ccccc21	6046
COCCNc1nc(NCc2ccc(NC(C)=O)cc2)c2sccc2n1	3409
CC(=O)Nc1ccc(OCc2cn(CC(=O)c3ccc(O)cc3)nn2)cc1	3362
COc1ccc(Cc2c(-c3ccc(OC)c(OC)c3)nc3c(C)cc(Br)cn23)c(C)c1	7593
CCc1nc2c(OCc3ccc(Cl)cc3)cccn2c1N(C)C(=O)c1ccco1	3080
CC1(C(=O)NC2CCCC2)CCC(=O)N1CCCn1ccnc1 (stereo unspecified)	6193
Cc1ccccc1OCc1nnc(SC(C)C(=O)O)n1-c1ccccc1 (stereo unspecified)	3725
CCC(=O)Oc1ccc(NC(=O)c2ccc(S(=O)(=O)N3CCCC3)cc2)cc1	2856
CCN(C(=S)Nc1cccc2ccccc12)c1ccccc1	2845
COc1ccc(OC)c(NC(=O)Nc2nnc(COCCO)s2)c1	3792
COCCN1C(=O)c2ccccc2C1c1nc2ccccc2[nH]1 (stereo unspecified)	6066
N#Cc1cnn2c(=O)[nH]cnc12	3760
Additional results:
SMILES	Autofluor counter
CN(C)CCNC(=O)c1ccc2nc([C@@H]3O[C@H](CO)[C@H](O)[C@H](O)[C@H]3O)[nH]c2c1	3477
COc1ccc(C(=O)NCC(c2ccco2)N2CCc3ccccc3C2)c(OC)c1 (stereo unspecified)	3400
CCOC1=C2[C@@H](CN(S(=O)(=O)c3ccc(C)cc3)[C@H]2c2ccccc2F)[C@H]2C(=O)N(Cc3ccccc3)C(=O)[C@H]2C1	4840
COC(=O)[C@]12CCCCC=C1N(Cc1cccc3ccccc13)C(=O)[C@H](CC(=O)N1CCCC1)C2	5828
C[C@@H]1CCCCO[C@@H](CN(C)S(=O)(=O)c2ccccc2)[C@@H](C)CN([C@H](C)CO)C(=O)c2cc(N(C)C)ccc2O1	3529
O=C(c1ccc(CSc2ccc(Cl)cc2)o1)N1CCOCC1	6266
O=C1OCC/C1=C1/NCCNC1=O	3780
CN(C)Cc1c[nH]c2nccnc12	4014
NS(=O)(=O)c1ccc(CCNC(=O)c2cc(S(=O)(=O)N3CCCCC3)ccc2Cl)cc1	3902
COC(=O)N1CCCCC1c1cc(C(=O)Nc2ccccc2Cl)no1 (stereo unspecified)	2943
Cc1ccc(NC(=O)C2(C)CCN2C(=O)Cc2ccc(-c3ccccc3)cc2)cc1 (stereo unspecified)	3730
O=C(NCC1CCOCC1)c1ccc(-c2ccc(F)c(F)c2)c2ccoc12	3901
CC1(C(=O)Nc2cnc3ccccc3c2)CCN1Cc1ccccc1OC(F)F (stereo unspecified)	3758
C[C@@H]1CN([C@@H](C)CO)C(=O)CCCn2nncc2CO[C@@H]1CN(C)C(=O)Cc1ccccc1	3658
CCc1nc2ccc(C(=O)Nc3ccc(C(=O)N(C)C)cc3)cn2c1N(C)CCCc1ccccc1	3875
CC(C)c1ccc(S(=O)(=O)N2CCN(C(=O)CCc3nc4ccccc4c(=O)[nH]3)CC2)cc1	3977
CCOc1ccc(-c2cc(C(=O)NCc3ccccc3)[nH]n2)c(C)c1	4073

Not a retest: entries from further up.
SMILES	Autofluor counter
NS(=O)(=O)c1ccc(CCNC(=O)c2cc(S(=O)(=O)N3CCCCC3)ccc2Cl)cc1	3902
COC(=O)N1CCCCC1c1cc(C(=O)Nc2ccccc2Cl)no1 (stereo unspecified)	2943
Cc1ccc(NC(=O)C2(C)CCN2C(=O)Cc2ccc(-c3ccccc3)cc2)cc1 (stereo unspecified)	3730
O=C(NCC1CCOCC1)c1ccc(-c2ccc(F)c(F)c2)c2ccoc12	3901
CC1(C(=O)Nc2cnc3ccccc3c2)CCN1Cc1ccccc1OC(F)F (stereo unspecified)	3758
